# GIV-Gai inh = blocks GIV peptide binding to rat Galpha-i3 | P08753 | Galpha-i3/FITC-GIV peptide fluorescence polarization, 90 min; active compounds read low; scaled: aluminum fluoride 0%, vehicle 100% | percent of control (FP), % (concentration not given with the values) | 0.42% of 210,000 active | AID 1224905;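 active means replicate mean at 85% of control or lower, very high polarization wells dropped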;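 further: wells of about 15 µL received 100 nL stock; the first replicate is given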
# Target sequence (P08753 whole entry, looked up): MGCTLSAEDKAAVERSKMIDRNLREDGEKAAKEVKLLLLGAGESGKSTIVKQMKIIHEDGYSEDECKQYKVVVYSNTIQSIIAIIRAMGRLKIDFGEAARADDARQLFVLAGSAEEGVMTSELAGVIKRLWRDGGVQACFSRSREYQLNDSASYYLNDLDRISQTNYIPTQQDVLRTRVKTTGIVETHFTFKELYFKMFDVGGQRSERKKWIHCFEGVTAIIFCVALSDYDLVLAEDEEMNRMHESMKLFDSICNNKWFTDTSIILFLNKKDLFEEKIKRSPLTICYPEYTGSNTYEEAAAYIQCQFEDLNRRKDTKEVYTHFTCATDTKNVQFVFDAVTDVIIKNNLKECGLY
# Active calls of the source: *. This is a subset (hit frequency here may not be typical).
structure | GIV-Gai inh
Cn1cc(CCN2CCC(C(=O)N3CCC4(CC3)OCCO4)CC2)c2cccnc21 | 108
CC1(C)CC(=O)C2=C(C1)NC1=C(C(=O)CC(C)(C)C1)C2c1ccc(I)cc1 | 115
Cc1nnc(-c2cccn2CC(=O)NC2CCCC2)o1 | 102
O=C(Nc1ccc2c(c1)S(=O)(=O)c1cc(NC(=O)c3ccccc3[N+](=O)[O-])ccc1-2)c1ccccc1[N+](=O)[O-] | 106
Cc1ccc(Sc2cc(Cl)c3noc4c3c2C(=O)c2ccccc2-4)cc1 | 103
Cc1ccccc1NC(=O)CN(C)S(=O)(=O)c1cc2c(cc1C)NC(=O)CO2 | 100
CCCCOP(=O)(OCCCC)C(Nc1ccccc1C(=O)O)c1ccccc1O (configuration not stated) | 113
COC(=O)c1ccc(N2C(=O)CSC2c2cccc(Br)c2)cc1 (configuration not stated) | 106
CCc1nnc(NC(=O)CSc2nc(N)nc(SC)c2C#N)s1 | 111
CCc1cc(C2CCCN2S(=O)(=O)c2ccc(CC(C)C)cc2)on1 (configuration not stated) | 105
O=C(Nc1cc(Cl)ccc1Oc1ccc2ccccc2c1Br)c1cc(Br)cc(Br)c1O | 108
O=C1Nc2c(S(=O)(=O)Oc3ccccc3)cc(S(=O)(=O)Oc3ccccc3)c3cccc1c23 | 106
Cc1cc(C)cc(NC(=O)C(Cc2c[nH]c3ccccc23)NC(=O)Oc2ccccc2)c1 (configuration not stated) | 108
COc1ccc(OC)c(C2CC(=O)Nc3c2c(C)nn3-c2ccc3nnc(C)n3n2)c1 (configuration not stated) | 108
Cc1nnc(-c2c(S(=O)(=O)NC3CCN(Cc4ccccc4)CC3)c(C)n(C)c2C)o1 | 105
Brc1ccc(C2=Nc3ccccc3SC(c3ccccc3)C2)cc1 (configuration not stated) | 107
COc1ccc(NC(=O)c2cccc(N3C(=O)C4C5C=CC(C5)C4C3=O)c2)cc1Cl (configuration not stated) | 106
Cc1ccc(-n2c(=S)sc3c(=O)n(-c4ccccc4)c(=S)[nH]c32)c(C)c1 | 113
Cc1nn(-c2nc3ccccc3[nH]2)c2c1C(c1cccnc1)CC(=O)N2 (configuration not stated) | 109
O=C(Nc1ccncc1)c1nc(-n2cnnc2)ccc1Br | 111
COc1ccc(C2(CNC(=O)CC(c3ccccc3)c3ccccc3O)CCCC2)cc1OC (configuration not stated) | 112
COc1cccc(CNC2=NCCNC23CCOCC3)c1 | 106
COc1ccc(NC(=O)Cn2nc(C(=O)N3CCCC3)c3ccccc32)cc1 | 98
CCOC(=O)C1=CN(Cc2ccc(OC)cc2)C=C(C(=O)OCC)C1c1cc(OC)c(OC)cc1Br | 109
Cc1ccc(N2CCN(c3ncnc4c3cnn4-c3ccccc3)CC2C)cc1 (configuration not stated) | 113
COc1ccc(N2CCN(S(=O)(=O)c3cc(-c4cc(C(F)(F)F)on4)cs3)CC2)cc1 | 105
COc1ccc(C(=O)N2CCN(Cc3noc(-c4ccccc4)n3)CC2)cc1 | 103
CN(C)CCCSc1nnc2c(n1)[nH]c1ccccc12 | 105
Cc1cc(C)c2c(n1)sc1c(=O)n(CC(=O)NC(C)C)cnc12 | 105
COc1ccccc1-n1c(SCC(=O)N2CCc3ccccc32)nc2c(c1=O)SCC2 | 104

# Next section; it opens with the 5 that closed the last part.
structure | GIV-Gai inh
COc1ccc(N2CCN(S(=O)(=O)c3cc(-c4cc(C(F)(F)F)on4)cs3)CC2)cc1 | 105
COc1ccc(C(=O)N2CCN(Cc3noc(-c4ccccc4)n3)CC2)cc1 | 103
CN(C)CCCSc1nnc2c(n1)[nH]c1ccccc12 | 105
Cc1cc(C)c2c(n1)sc1c(=O)n(CC(=O)NC(C)C)cnc12 | 105
COc1ccccc1-n1c(SCC(=O)N2CCc3ccccc32)nc2c(c1=O)SCC2 | 104
Cn1c(=O)c2c(nc3n(-c4ccccc4)c(-c4ccc(Br)cc4)cn23)n(C)c1=O | 117
Cc1nn(-c2ccc(Cl)cc2)c2sc(C(=O)NC3CCCc4ccccc43)cc12 (configuration not stated) | 102
CC(=O)Nc1ccc2nc(SCC(=O)N3CCc4ccccc43)sc2c1 | 103
O=C(Nc1ccccc1Cl)c1cc(S(=O)(=O)N2CCN(c3cccc(Cl)c3)CC2)ccc1F | 112
O=C(Nc1ccccc1Br)N1CCC2(CC1)Nc1ccccc1-n1cccc12 | 108
CCn1cc(S(=O)(=O)Nc2ccc3nc(S(=O)(=O)CC)sc3c2)cn1 | 103
CCc1cccc(C)c1-n1nnnc1C1(N)CCCC1 | 112
CCOc1ccc(C2c3[nH]c4ccccc4c3CCN2S(=O)(=O)c2ccccc2)cc1 (configuration not stated) | 101
Fc1ccc(C2C=C(c3ccc(Br)cc3)Nc3nc4ccccc4n32)cc1 (configuration not stated) | 104
CCOC(=O)c1c(S(=O)(=O)NCC(=O)Nc2ccc(F)c(Cl)c2)c(C)n(CC)c1C | 101
Cc1ccc(C(=O)Nc2ccc(Oc3nc4ccccc4n4cnnc34)cc2)cc1 | 103
Cc1cc(NC(=O)CSc2nc3ccccc3c(=O)n2CCCC(=O)N2CCN(c3ccccc3)CC2)no1 | 107
Cn1cnc2cc(-c3noc(CNC(=O)C(c4ccccc4)c4ccccc4)n3)ccc21 | 103
CCCCc1nc(SCC(=O)Nc2ccc(Br)cn2)n[nH]1 | 110
NS(=O)(=O)c1ccc(CCNC(=O)CSc2nc3ccccc3c(=O)n2C2CCCCC2)cc1 | 126
C=CCOc1ccc(/C=C2\SC(=N)N(c3nccs3)C2=O)cc1OCC | 115
O=C(NCCN1CCOCC1)c1nn2c(C(F)(F)F)cc(-c3ccco3)nc2c1Br | 100
COc1ccc(N2C(=O)c3ccccc3C2C(=O)NCCC(C)C)cc1Cl (configuration not stated) | 107
Cc1c(S(=O)(=O)N2CCCCCC2)c(C)n(C)c1-c1nnc(C2CCC2)o1 | 108
CCN1CCCn2nc(C3CCN(C(=O)c4sccc4C)CC3)cc2C1=O | 107
O=C(c1cccc(F)c1)N1CCN(C(=O)c2cc3cc(Br)ccc3[nH]2)CC1 | 100
COc1cccc(CC(=O)N2CCOc3ccc(CN(C(=O)C4CC4)c4ccccc4)cc3C2)c1 | 104
COc1ccc(/C=C2\SC(=S)N(CCC(=O)Nc3cc(Cl)ccc3O)C2=O)cc1OC | 107
N#CC1Cn2c(nc3c(c2=O)C2(CCCC2)Cc2ccccc2-3)S1 (configuration not stated) | 102
O=C(CSCc1nc2ccccc2c(=O)n1-c1cccc(C(F)(F)F)c1)Nc1ccccc1 | 99
CCCOCC1CC2(CC(C)(c3csc(Nc4ccccc4Cl)n3)OC2=O)C(=O)O1 (configuration not stated) | 112
O=C(NCCCN1CCOCC1)/C(=C/c1cccs1)NC(=O)c1ccccc1 | 104
O=c1c2cc3c(cc2nc(SCc2nc(-c4cccc(F)c4)no2)n1Cc1ccncc1)OCO3 | 102
COc1ccc(OC)c(S(=O)(=O)Cc2nc(-c3ccc4c(c3)OCO4)no2)c1 | 104
Cc1ccc(-c2nccc(N3CCN(C(=O)c4ccccc4Br)CC3)n2)cc1 | 107

# Exported field by field: 2 of the compounds above.
SMILES: O=c1c2cc3c(cc2nc(SCc2nc(-c4cccc(F)c4)no2)n1Cc1ccncc1)OCO3
  GIV-Gai inh = 102

SMILES: Cc1c(S(=O)(=O)N2CCCCCC2)c(C)n(C)c1-c1nnc(C2CCC2)o1
  GIV-Gai inh = 108

# (more compounds)
structure | GIV-Gai inh
CCOC(=O)C1C(=O)NC(SCC(=O)Nc2cccc(OC)c2)=C(C#N)C1c1ccccc1OC (configuration not stated) | 99
c1ccc(Nc2nc(N3CCN(c4ccccc4)CC3)nc3c2cnn3-c2ccccc2)cc1 | 107
COc1ccccc1Oc1cc(-c2ccc(C(=O)Nc3ccccc3C)cc2)ncn1 | 109
CCOc1cc(C2CC(=O)NC(SCC(=O)Nc3ccc(Br)cc3)=C2C#N)ccc1O (configuration not stated) | 101
CC1CCCCN1c1nc2nonc2nc1N1CCCCC1C (configuration not stated) | 105
CN(C)S(=O)(=O)c1ccc2c(c1)C(=NO)c1cc(S(=O)(=O)N(C)C)ccc1-2 | 109
CNS(=O)(=O)c1ccc2c(c1)C(=O)c1cc(S(=O)(=O)NC)ccc1-2 | 108
C=CCOc1ccc(/C=C2\SC(=N)N(c3nonc3N)C2=O)cc1OCC | 107
CCOc1ccc(-c2noc(Cc3nc(-c4ccc5c(c4)OCO5)cs3)n2)cc1 | 102
Cc1nn(-c2ccc(-c3ccccc3)nn2)c(C)c1S(=O)(=O)N(C)Cc1ccccc1 | 104
O=C1c2ccccc2-c2nc3ccccc3n21 | 113
NC(=O)CSc1nc2c(c(=O)n1Cc1ccccc1)C1(CCCCC1)Cc1ccccc1-2 | 103
c1ccc(N2CCN(c3nc(N4CCOCC4)c4ccccc4n3)CC2)cc1 | 99
COc1ccc(Nc2nc(-c3cc4cc(Br)ccc4oc3=O)cs2)cc1OC | 106
COc1ccc(-c2cc(C(F)(F)F)n3nc(C(=O)NC(C)C)c(Cl)c3n2)cc1OC | 110
Cc1cccc(N2CCN(S(=O)(=O)c3ccc(-c4nnc(C5CCC5)o4)o3)CC2)c1 | 104
Cc1cc2c(cc1C)C(c1ccc(Cl)cc1Cl)CC(=O)N2 (configuration not stated) | 107
Cc1ccc(-c2nc(CNC(=O)CCN3C(=O)c4ccccc4C3=O)no2)cc1 | 100
C=CCOc1ccc(C2C(C#N)=C(N)OC(C)=C2C(C)=O)cc1 (configuration not stated) | 108
Cc1nnc(-c2coc(S(=O)(=O)N3CCN(C4CCCCC4)CC3)c2)o1 | 101
CCN(Cc1ccccc1)c1ccc(NC(=O)c2ccccc2C)cc1C(=O)O | 106
COCCNC(=O)NC1COc2ccccc2C1 (configuration not stated) | 98
O=C(c1ccccc1)N1c2ccccc2N=C(c2ccc(Cl)cc2)CC1c1ccccc1 (configuration not stated) | 109
Cc1ccc(N(CC(=O)Nc2c(C)n(C)n(-c3ccccc3)c2=O)S(=O)(=O)c2ccc(C)cc2)cc1 | 117
CCNc1cc(C)nc(Nc2ccc(NC(=O)C(C)(C)C)cc2)n1 | 106
Nc1ccc(Br)cc1-c1n[nH]c(=S)[nH]c1=O | 115
CCn1ccc(C(=O)N2CCCC2c2cc(C)no2)n1 (configuration not stated) | 101
COc1ccc(Cc2noc(-c3cc(-c4ccncc4)nc4ccccc34)n2)cc1OC | 110
COc1ccc(/C=C2\c3ccc(C)cc3-c3nc4ccccc4cc32)cc1 | 110
C=CCn1cc(C(=O)OC)c(=O)c2cc(S(=O)(=O)N3CCC(C)CC3)ccc21 | 97
Cc1c(C(=O)Nc2ccccc2C(F)(F)F)sc2nc(SCc3cccc([N+](=O)[O-])c3)n(Cc3ccccc3)c(=O)c12 | 108
O=C(Nc1ccc(-c2nc3cc(Cl)ccc3o2)cc1)c1cccc(-n2cnnc2)n1 | 178
CS(=O)(=O)N1CCN(c2ncnc3c2nnn3-c2ccccc2)CC1 | 100
COc1ccc(-c2cnn3c(SCC(=O)N4CCc5ccccc54)cc(C)nc23)cc1OC | 100
O=S(=O)(c1cn(Cc2noc(-c3ccccc3Br)n2)cn1)N1CCCCC1 | 105
COc1ccc(N2CC(c3nnc(NC(=O)Cc4ccccc4Cl)o3)CC2=O)cc1 (configuration not stated) | 93
CC1(C2CC2)NC(=S)N(c2ccccc2)N1 (configuration not stated) | 111
OC(CN1CCN(Cc2ccc(Cl)cc2Cl)CC1)Cn1c2ccccc2c2ccccc21 (configuration not stated) | 104
CC(=O)N1CCCc2cc(S(=O)(=O)N3CCCC(C(=O)NCC4CCCO4)C3)ccc21 (configuration not stated) | 103
CCOC(=O)C1Cc2c([nH]c3ccccc23)C(C)N1 (configuration not stated) | 101
CC1(C)CC(=O)C2=C(C1)c1c(ccc3ccccc13)NC2c1ccc(-c2ccc(Cl)cc2)o1 (configuration not stated) | 110
CC(NC(=O)c1cc(-c2ccc(F)cc2)nc2n[nH]c(-c3ccccc3)c12)c1ccccc1 (configuration not stated) | 101
CC(C)NC(=O)c1nsc(C(=O)NCC2CC2)c1N | 103
O=C(Nc1ccc(-c2noc(-c3ccc(Br)o3)n2)cc1)c1cccc(Cl)c1 | 104
O=C(c1ccsc1)N1CCC(Nc2ncnc3c2CCC3)CC1 | 105
C#CCOc1ccc(C2Nc3ccc(Cl)cc3[C@H]3OCCC[C@@H]23)cc1 (some centres not stated) | 101
CC(C)c1ccc(C2/C(=C(\O)c3ccc(Cl)cc3)C(=O)C(=O)N2CCCN2CCOCC2)cc1 (configuration not stated) | 109
CCn1c(SCC(=O)N2CCc3ccccc32)nc(=O)c2c(C(=O)OC)cc(C3CC3)nc21 | 106
O=C(c1ccc(-c2nc(-c3ccc(F)cc3)no2)cc1)N1CCN(Cc2ccc3c(c2)OCO3)CC1 | 108
Cc1ccc(NC(=O)C2CCCN(S(=O)(=O)c3cccc4cccnc34)C2)cc1C (configuration not stated) | 103
O=C(Nc1cc(F)ccc1F)N1CCC2(CC1)Nc1ccccc1-n1cccc12 | 114
N#CC1=C(NC(=S)NC(=O)c2ccccc2)c2ccccc2CC12CCCC2 | 114
COc1cc([C@@H]2[C@@H](C(=O)c3ccccc3)N3c4ccc5ccccc5c4C=C[C@@H]3C2(C#N)C#N)cc(OC)c1OC | 118
COc1cc(C2C3=C(CC(C)(C)CC3=O)N(c3ccc([N+](=O)[O-])cc3C)C(=N)/C2=C(/O)c2ccccc2)cc(OC)c1OC (configuration not stated) | 109
C=CCNC(=O)/C(=C/c1ccc([N+](=O)[O-])cc1)NC(=O)c1ccco1 | 105
Cc1cccc(-n2c3nc(=O)[nH]c(=O)c-3cc3c(Cl)cccc32)c1 | 109
CCOC(=O)C1(C)C=C(Nc2ccc(OCC)cc2)C(=O)N1c1ccccc1 (configuration not stated) | 120
CCCCCn1c(SCC(=O)N(C)Cc2ccccc2)nc2cc(C(=O)NCc3ccco3)ccc2c1=O | 114

# Screening results from PubChem.
